High-throughput results as filed in PubChem.
TAR Tat displ – HIV-1 TAR-Tat binding disruption. HIV-1 TAR RNA, Tat peptide displacement FRET; hits give high values. z-score (concentration not given with the values). hit rate 0.6% among 100,000. AID 1259389;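 further: score is relative to mean and SD of negative controls; some compounds called inactive have numbers as strong as hits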
CDC25B CDK2 inh – human CDC25B-CDK2/CyclinA binding inhibition | P30305+P24941 | HTRF CDC25B-CDK2/CyclinA binding, anti-His/anti-Flag; hits give high values | z-score (concentration not given with the values) | hit rate 0.72% among 94,000 | AID 1259370;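 further: score is relative to mean and SD of negative controls; strong numbers were not always called active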
Starred values were filed as active, the others as inactive; . = no result given.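 How the source made its calls: active means z-score from 3 up in half or more of its runs; inactive means the rest.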

SMILES | TAR Tat displ | CDC25B CDK2 inh
COCCCNC(=O)c1cnc(N2CCOCC2)nc1 | 1.4 | .
CC(=O)C1C(c2cccc(F)c2)NC(=O)NC1(O)C(F)(F)F (stereo not drawn) | . | -1.94
O=S(=O)(NCCc1csc2nc(-c3cccs3)nn12)c1cc(F)ccc1F | -1.79 | .
Clc1ccccc1CSc1nnnn1-c1ccccc1 | -0.43 | -0.27
O=C(O)CSc1nnc2c3ccccc3n(CCc3ccccc3)c2n1 | -1.08 | -9.18
CCC(CC)C(=O)n1c(=O)oc2cc(Cl)ccc21 | -7.1 | .
Cc1nnc2c(Nc3ccc(F)cc3)nc3ccccc3n12 | 0.72 | -0.67
COc1ccccc1C1CCN(CCCOc2ccc(Cl)cc2)CC1 | . | -0.85
COC(=O)CN1C(=O)CC(C)(C)S(=O)(=O)c2ccccc21 | 0.9 | -1.98
CCc1ccc(S(=O)(=O)Nc2ccc3c(c2)COC3=O)cc1 | -0.58 | -0.16
O=C(CSc1nc(-c2ccco2)cc(C(F)(F)F)n1)N1CCOCC1 | 1.03 | -0.24
Cc1nnc(N2C(=O)C(=O)/C(=C(/O)c3ccccc3)C2c2ccc(Br)cc2)s1 (stereo not drawn) | . | -3.14
O=C(O)c1ccc(CN2C(=O)COc3ccccc32)cc1 | 1.7 | -1.66
CC1(C)CC(=O)C=C(NCCCCCCCCNC2=CC(=O)CC(C)(C)C2)C1 | . | 0.04
CC(=O)Nc1ccc(NC(=O)c2nn(C)cc2Br)cc1 | . | -1.13
Cc1[nH]nc(-c2ccc(S(=O)(=O)NCCCN3CCN(C)CC3)s2)c1C | 0 | .
CCOC(=O)c1c[nH]c2cc(OC)ccc2c1=O | -0.77 | -1.13
Cn1c(Br)nc2c1c(=O)n(Cc1ccccc1)c(=O)n2C | . | 1.28
O=c1[nH]c2ccc(NCc3ccc4c(c3)OCO4)cc2[nH]1 | -1.88 | 0.69
Cc1sc(-c2noc(C3CC3)n2)cc1S(=O)(=O)N1CCN(C(=O)c2ccco2)CC1 | -0.61 | .
N#C/C(=C\c1ccc(O)cc1)C(N)=O | . | -0.96
O=C(NCc1ccncc1)c1cc(=O)c2cc(Cl)ccc2o1 | 4.7 | -2.56
Nc1nc2n(n1)C(c1cccs1)CC(c1ccccc1)N2 (stereo not drawn) | . | -2.72
Cc1nc2ccn(Cc3cccs3)c(=O)c2cc1C(=O)NCC1CCCO1 (stereo not drawn) | -0.59 | .
CCOC(=O)Cn1nnc(N2CCCC2)n1 | . | -1.76
CCOc1ccc(CNCCSc2nnnn2C)cc1OCC | 0.77 | -0.69
CCS(=O)(=O)N1CCC2(CC1)OC(=O)C(C)=C2C(=O)N1CCN(C)CC1 | 0.68 | .
COc1ccc(N(C)S(=O)(=O)c2ccc3c(c2)NC(=O)CC(=O)N3)c(OC)c1 | 1.29 | 0.19
Cc1ccc(-n2c(C)nnc2SCc2nc(-c3ccc(Cl)cc3)no2)cc1 | 1.06 | 1.41
COc1ccc(/C=N/NC(=S)Nc2ccc(F)cc2)cc1 | . | -1.15
O=C1c2ccccc2-n2c1nc1ccccc1c2=O | 2.15 | .
COCCCn1c(SCC(=O)NN)nnc1-c1ccc(C(F)(F)F)cc1 | . | 0.47
CCOC(=O)C1=C(C(F)(F)F)Nc2ncnn2C1c1ccc(F)cc1 (stereo not drawn) | 1.48 | .
CCN(Cc1ccccc1)S(=O)(=O)c1ccc2[nH]c3c(c2c1)CCCC3 | -1.85 | .
CCCCOc1ccc(C2c3c(oc4ccc(F)cc4c3=O)C(=O)N2CCCN(C)C)cc1 (stereo not drawn) | -0.67 | 0.06
CC(=O)C1C(=O)C=C(/C=C/c2ccccc2)CC1c1ccccc1 (stereo not drawn) | . | -1.55
O=S(=O)(Nc1nc(SCc2ccc(Cl)cc2)n[nH]1)c1cccc2nonc12 | . | -2.01
CCOC(=O)c1cnc(SCC(=O)c2cccc([N+](=O)[O-])c2)nc1N | . | -2.01
O=C1COc2cc(-c3c(N4CCCCC4)c(=O)c3=O)ccc2N1 | 1.4 | .
Cc1nn(CC(=O)NC2CC2)c2ccccc12 | 0.15 | 0.33

Complete entries as entered above.
CCN(Cc1ccccc1)S(=O)(=O)c1ccc2[nH]c3c(c2c1)CCCC3 as listed: TAR Tat displ: -1.85; CDC25B CDK2 inh: .
COc1ccc(N(C)S(=O)(=O)c2ccc3c(c2)NC(=O)CC(=O)N3)c(OC)c1 as listed: TAR Tat displ: 1.29; CDC25B CDK2 inh: 0.19

Remaining list, next part
SMILES | TAR Tat displ | CDC25B CDK2 inh
N#Cc1c(F)ccc(NC(=O)Nc2ccc(Cl)cc2)c1F | . | 1.3
Cc1cc(NC2CCCCC2)nc2ccc(N)cc12 | 1.8 | 2.17
CCOC(=O)N1CCC(Nc2nc3ccc(Cl)cc3n3cnnc23)CC1 | 0.73 | -0.8
O=C(CCCn1sc2ccccc2c1=O)N1CCCCC1 | 1.25 | -1.18
CCOC(=O)C(O)(c1ccc(NC(=O)Nc2ccc3ccccc3c2)c(OC)c1)C(F)(F)F (stereo not drawn) | . | -0.2
N/C(COc1ccc(Cl)cc1Cl)=N\OC(=O)c1ccccc1 | . | -2
CC(=O)N1CCc2cc(S(=O)(=O)NC(CC(C)C)C(=O)N3CCc4ccccc43)ccc21 (stereo not drawn) | . | -1.7
O=C(NCCN1CCCC1)C1CCN(c2nc3cccnc3s2)CC1 | -0.24 | .
Cc1cc(C)n2nc3nc(N4CCCCCC4)nc(-c4ccccc4)c3c2n1 | . | -0.47
O=C1CC(c2ccc(F)cc2)C2=C(CC(c3ccc(F)cc3)CC2=O)N1 (stereo not drawn) | 2.43 | -1.61
OCCNc1cc(-c2ccccc2)ncn1 | 1.44 | -0.22
CCOC(=O)/C(C#N)=C/N(/N=C/c1ccccc1)c1ccccc1 | . | -1.81
CN(C)/C=C/C(=O)c1nccs1 | . | -1.21
CCOC(=O)CSc1nn(CC)c2nc3c(c(=O)n12)C(C)(CC)Cc1ccccc1-3 (stereo not drawn) | -0.4 | -1.76
O=C(O)c1cc(NC(=O)c2cccs2)cc(C(=O)O)c1 | 1.42 | -1.09
CC(=O)Nc1ccc(C2N=C(c3ccc(C(F)(F)F)cn3)NN2)cc1 (stereo not drawn) | . | -0.98
COC(=O)c1c(-c2ccc(Cl)cc2)noc1N1CCOCC1 | 0.39 | .
CCc1nnc2c(Nc3ccc(O)cc3)nc3ccccc3n12 | 0.4 | .
O=c1oc2ccccc2n1CCOc1ccc(Cl)cc1 | 2.96 | -2.74
CCC12CN3CC(CC)(CN(C1)C3c1ccc(OC(C)C)cc1)C2=O (stereo not drawn) | . | -3.64

An excerpt of these results, with each value named:
O=C(CCCn1sc2ccccc2c1=O)N1CCCCC1
- TAR Tat displ: 1.25
- CDC25B CDK2 inh: -1.18
CCOC(=O)C(O)(c1ccc(NC(=O)Nc2ccc3ccccc3c2)c(OC)c1)C(F)(F)F (stereo not drawn)
- TAR Tat displ: .
- CDC25B CDK2 inh: -0.2

Part of the list above, as labelled records.
O=C1CC(c2ccc(F)cc2)C2=C(CC(c3ccc(F)cc3)CC2=O)N1 (stereo not drawn)
  TAR Tat displ: 2.43
  CDC25B CDK2 inh: -1.61

OCCNc1cc(-c2ccccc2)ncn1
  TAR Tat displ: 1.44
  CDC25B CDK2 inh: -0.22

(list continues)
Below each SMILES – TAR Tat displ | CDC25B CDK2 inh
- O=C1CC(C(=O)O)c2ccccc2N1 (stereo not drawn)
 : 1.11 | .
- O=C(Cn1cc(C(=O)c2ccco2)c2ccccc21)NCCc1c[nH]c2ccccc12
 : 0.68 | -0.85
- CCCCC(=O)Nc1ccc(OCc2cc(=O)n3cc(Cl)ccc3n2)cc1
 : -0.11 | .
- O=C(Nc1nnc2n1CCS2)c1ccco1
 : 1.15 | .
- O=C1CC(C(=O)Nc2ccccc2F)n2c(nc3ccccc32)N1 (stereo not drawn)
 : -1.56 | -1.78
- CC1CCN(C(=O)CN2CCSc3ccc(S(=O)(=O)N(C)C)cc32)CC1
 : 1.92 | .
- Cc1cn2c(=O)cc(COc3ccc(Cl)c(C)c3)nc2s1
 : 0.43 | -1.19
- COc1ccc(C2C=C(c3ccc(C(C)C)cc3)Nc3ncnn32)cc1OC (stereo not drawn)
 : -0.99 | .
- COc1cc(OC)cc(C(=O)n2c(=O)oc3cc(Cl)ccc32)c1
 : -3.88 | .
- O=C(NCc1nc(-c2ccc3c(c2)ncn3C2CCCC2)no1)c1cccs1
 : 2.3 | .
- CC(=O)OCC#CCSc1nnc(-c2cccc(Br)c2)o1
 : 0.06 | -0.26
- CC(C)COc1ccc2[nH]c3c(c2c1)CCCC3=O
 : 1.9 | -4.53
- Clc1ccc2c(c1)[C@H]1OCC[C@H]1[C@@H](c1ccco1)N2
 : . | 0.07
- O=C(CN1C(=O)c2ccccc2C1=O)NCc1cc2ccccc2s1
 : . | -1.21
- Brc1ccc(-c2ccc(CNCc3cccnc3)o2)cc1
 : 1.04 | .
- CN(C)c1ccc(C(C2=C(O)CC(C)(C)CC2=O)C2=C(O)CC(C)(C)CC2=O)cc1
 : 0.19 | -0.13
- COc1cccc(NS(=O)(=O)c2ccc(CN3C(=O)c4cccnc4C3=O)s2)c1
 : -0.29 | .
- CN(CC(=O)N1CCc2ccccc21)S(=O)(=O)c1ccc2[nH]c(=O)ccc2c1
 : 1.01 | .
- Cn1c(=O)oc2ccc(C(=O)NCCC3=CCCCC3)cc21
 : 1.69 | .
- Cc1cccc(-c2nc3ccccc3c3nnc(SC(C)C(=O)NC4CC4)n23)c1 (stereo not drawn)
 : 1.45 | .
- Cn1nc(C(F)(F)C(F)F)cc1-c1ccccc1O
 : 1.08 | -1.22
- CCCN(c1nc(C)cc(OC)n1)S(=O)(=O)c1ccccc1Cl
 : -0.85 | -2.15
- CCc1cc(Sc2ccccc2N)n2ncnc2n1
 : -4.66 | .
- CCOC(=O)C1CCCN(S(=O)(=O)c2ccc3c(c2)oc(=O)n3C)C1 (stereo not drawn)
 : 0.59 | -0.87
- Brc1c(-c2ccccc2)nc2ccccn12
 : -0.81 | -0.54
- COc1cc(OC)cc(-c2nnc(Cc3ccccc3Cl)o2)c1
 : 1.34 | 1.25
- O=C1C2C3CC4C5C3C1C5C(F)(F)C42 (stereo not drawn)
 : . | -3.57
- CCN(CC)C(=O)Cn1cc(SCC(=O)N2CC(C)OC(C)C2)c2ccccc21 (stereo not drawn)
 : 0.31 | .
- Cc1cccc(CC2C(=O)Nc3ccccc32)c1 (stereo not drawn)
 : 1.71 | -2.14
- CCOC(=O)c1cc(S(=O)(=O)N(C)C2CCCC(C)C2C)cn1C (stereo not drawn)
 : 0.46 | -0.36
- CCc1cc2c(NCCCN3CCC(N4CCCCC4)CC3)ncnc2s1
 : 2.02 | .
- CC1CCCCN1c1nnc(NC(=O)Nc2ccccc2Br)s1 (stereo not drawn)
 : 1.51 | -1.77
- O=C(CC(=O)Nc1ccc(F)cc1F)Nc1ccc2nc3n(c(=O)c2c1)CCCCC3
 : 1.72 | 4.67
- CCCc1cc(=O)n2nc(N3CCC(C(=O)NCCN4CCN(C)CC4)CC3)sc2n1
 : 1.46 | 0.94
- Cc1ccc(C(=O)N2CCC(C(=O)c3c(C)cc(C)cc3C)CC2)cc1
 : . | 0.01
- CSc1sc(C(=O)N/N=C/c2ccccc2Cl)c2c1C(O)CCC2 (stereo not drawn)
 : . | -1.94
- Cc1nc(-c2ccccn2)nc(N2CCN(CCO)CC2)c1Cl
 : . | -0.92
- COc1ccc(OC)c(C(=O)CC2(O)C(=O)N(Cc3ccccc3)c3ccc(Br)cc32)c1 (stereo not drawn)
 : 1.02 | 2.01
- CCOc1ccccc1-n1nnc(S(=O)(=O)c2ccc(CC)cc2)c1N
 : 1.57 | 5.38
- COCCNC(=O)Cn1ncc2c3ccccc3n(C)c2c1=O
 : 0.64 | -1.05
- COc1cc2c(=O)n(C3CCCC3)c(=O)n(CC(=O)c3ccc(Br)cc3)c2cc1OC
 : -0.28 | -2.35
- Clc1ccc(-c2nn3c(COc4ccccc4)nnc3s2)cc1
 : 0.11 | -0.7
- CC(C)CCn1c(SCc2cc(=O)n3cc(Cl)ccc3n2)nc2ccsc2c1=O
 : . | -2.31
- CCOC(=O)Cn1nnc(-c2cccs2)n1
 : . | -1.24
- NC(=O)c1nnc(Cc2ccc(F)cc2)o1
 : 0.07 | -1.45
- O=C1CC(c2nc3ccccc3n2CCCOc2ccccc2)CN1Cc1ccccc1 (stereo not drawn)
 : 0.77 | -0.74
- CC1(C)CC[C@]2(C)CC[C@]3(C)C(=CCC4[C@@]5(C)CC[C@H](O)C(C)(C)C5CC[C@]43C)C2C1 (stereo partly drawn)
 : 1.15 | .
- CC1CCCN(S(=O)(=O)c2ccc(N3CCOCC3)nc2)C1 (stereo not drawn)
 : . | -0.9
- C[C@H]1C(=O)CC[C@@H]2[C@]1(C)CC[C@H]1[C@@]2(C)CC[C@@]2(C)[C@@H]3CC(C)(C)CC[C@]3(C)CC[C@]12C
 : 1.4 | .
- Cc1nnc(SCC(=O)Nc2nsc(-c3ccc(C(C)(C)C)cc3)n2)s1
 : 1.52 | -0.5
- CC1=C(C(=O)Nc2ccc(C(=O)NC3CC3)cc2)SCCO1
 : 0.58 | .
- COc1ccc(C2CC(=O)CC(c3ccc(OC)cc3)S2)cc1 (stereo not drawn)
 : 1.39 | -1.99
- CC1CC(=O)Nc2cc(S(=O)(=O)N(C)Cc3cnn(-c4ccccc4)c3)ccc2S1 (stereo not drawn)
 : 0.93 | .
- O=C(Nc1cccc(Br)c1)c1c(O)c2ccccc2[nH]c1=O
 : 2.59 | .
- COc1ccc(Cl)cc1C(=O)NC1CCSC1=O (stereo not drawn)
 : 1.63 | -0.31
- Cc1ccc(Cl)cc1N1CC(O)=C(c2nc3ccccc3c(=O)[nH]2)C1=N
 : 1.83 | -2.42
- CC1=C/C(=N\N=C2\NC(=O)C(CC(=O)Nc3ccccc3C)S2)CC(C)(C)C1 (stereo not drawn)
 : . | -0.16
- Cc1cc(C(=O)C(=O)Nc2nncs2)c(C)n1-c1ccccc1
 : 6.91 | -2.44
- CCOC(=O)c1n[nH]n(-c2cc(Cl)cc(Cl)c2)c1=O
 : . | -0.64
- CN(Cc1ccco1)c1ccc2cc(S(=O)(=O)N3CCCC3)ccc2n1
 : 0.01 | .

Rows were taken by chance. About 0.97% of those tested had a hit in this group.
